Screens from PubChem.
Marburg entry inh – Marburg virus entry inhibition; Marburg virus pseudotyped entry inhibition, cell reporter; control for the full effect not named in the record; about a third of the inactives were read at about 46 µM; Potency, µM (highest dose often 37.8 µM), without a hit: at the top dose activity change, negative = inhibition, usual class: inhibitors; actives 1.8% (n = 300,000); AID 540276; active = well fitted inhibition curve with a large enough effect; inconclusive = small, poorly fitted or top-dose-only effect, or effect the other way; inactive = flat fitted curve, though single readings scatter; tested in HEK293 cells; about a fifth of its hits are not listed in these tables; note: % is set by controls: 0 for no effect and ±100 for the full control effect; luciferase read-out
SARS PLpro yeast – SARS-CoV PLP inhibition in yeast. S. cerevisiae expressing SARS-CoV PLpro, growth rescue; control for the full effect not named in the record. Potency, µM (doses to about 32.9 µM), for the others: at the top dose activity, positive = growth rescue. actives 0.19% (n = 330,000). AID 485353; note: 0% is about no effect; nearly all actives have a fitted effect of over 55% in size; growth read by luminescence after 48 h
2A StopGo – lowers the luciferase signal of an FMDV 2A StopGo reporter; human cells with a luciferase reporter of 2A StopGo recoding; control for the full effect not named in the record; Potency, µM (titrated, usually from 57.9 µM), for inactives: top-dose signal change, negative = less light; actives 1.2% (n = 410,000); AID 1159524; active = well fitted falling curve with a large enough effect; inconclusive = small, poorly fitted or top-dose-only effect; inactive = no such curve, though single readings can be large or run the other way; tested in HEK293T cells; note: % is set by controls: 0 for no effect and ±100 for the full control effect; nearly all actives have a fitted effect of over 45% in size; luciferase light after 4 h
Cruzain inh Det – cruzain (T. cruzi) inhibition with detergent. purified cruzain, Z-FR-AMC fluorescence, 0.01% Triton. Potency, µM, inactives show max response, negative = inhibition, hits mostly inhibitors. P25779. actives 0.43% (n = 200,000); active = well fitted curve in the direction sought with a large enough effect; inconclusive = small, poorly fitted or top-dose-only effect, or another doubt; inactive = no such curve, though single readings can be large; an effect the other way counts as inactive or inconclusive;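 note: plate controls were neutral wells for no effect and buffer without enzyme for full effect; nearly all actives have a fitted effect of over 40% in size; top concentration of the series not given in the record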
Target sequence (P25779 123-467 limits assumed): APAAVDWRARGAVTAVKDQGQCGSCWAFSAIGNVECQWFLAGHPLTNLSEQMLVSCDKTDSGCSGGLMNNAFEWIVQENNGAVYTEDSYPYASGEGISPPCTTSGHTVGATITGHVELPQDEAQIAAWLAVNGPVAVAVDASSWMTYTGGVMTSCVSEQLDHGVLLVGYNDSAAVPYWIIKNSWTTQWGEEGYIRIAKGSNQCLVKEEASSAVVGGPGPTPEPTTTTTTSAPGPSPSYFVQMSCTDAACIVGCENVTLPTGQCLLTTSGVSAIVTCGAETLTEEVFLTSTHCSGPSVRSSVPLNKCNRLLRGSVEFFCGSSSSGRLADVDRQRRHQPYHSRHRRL
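Compounds were screened in titration against cruzain (1.5 nM) with 0.01% Triton X-100 to counter colloidal aggregation. Activity was the AMC fluorescence increase over 60 s after adding 2 uM Z-FR-AMC at pH 5.5.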
NS1 function inh – influenza NS1 inhibition; S. cerevisiae slowed by influenza A NS1, growth recovery by OD600; Potency, µM (highest dose often 46.1 µM), without a hit: at the highest dose activity, positive = more growth; actives 0.4% (n = 270,000); AID 2326; note: actives are rising curves; nearly all actives have a fitted effect of over 50% in size
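A cell-based growth assay was used: compounds that relieve NS1-induced slow growth of budding yeast raise OD600. Assay medium was yeast nitrogen base with ammonium sulphate and -URA supplement, pH 6.0, with 2% galactose.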
Cruzain inh noDet – cruzain (T. cruzi) inhibition without detergent | P25779 | purified cruzain, Z-FR-AMC fluorescence, no detergent | Potency, µM, for inactives: max response, negative = inhibition, hits mostly inhibitors | actives 2.3% (n = 200,000) | AID 1476; active = well fitted curve in the direction sought with a large enough effect; inconclusive = small, poorly fitted or top-dose-only effect, or another doubt; inactive = no such curve, though single readings can be large; an effect the other way counts as inactive or inconclusive;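 note: plate controls were enzyme without inhibitor for no effect and buffer without enzyme for full effect; nearly all actives have a fitted effect of over 40% in size; top concentration of the series not given in the record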
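Detergent-free condition (0.00005% Triton X-100) in acetate buffer pH 5.5 with DTT. 1.5 nM enzyme and compound were pre-mixed 15 min, then 2 uM Z-FR-AMC substrate added; reaction progress from fluorescence change between first and third reads (60 s).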
RE007 growth inh – less growth of the S. pombe RE007 Vpr strain | S. pombe RE007 Vpr strain, BacTiter-Glo ATP luminescence, 24 h; control for the full effect not named in the record | Potency, µM (titrated, usually from 92.2 µM), inactives show top-dose activity change, negative = less growth | actives 0.21% (n = 360,000) | AID 651644; active = well fitted falling curve with a large enough effect; inconclusive = small, poorly fitted or top-dose-only effect; inactive = no such curve, though single readings can be large or run the other way;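 note: % is set by controls: 0 for no effect and ±100 for the full control effect; nearly all actives have a fitted effect of over 50% in size; the assay follows cell death caused by Vpr and the record does not say whether a fall means rescue or toxicity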
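Fission yeast RE007 carrying one integrated HIV-1 vpr copy, seeded at OD 0.01 in PMG+AL medium with 23 nL pinned compound. Grown 24 h at 30 degrees; viability read by BacTiter-Glo luminescence after 5 min.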
Lassa entry inh – inhibitors of Lassa virus binding or cell entry; Potency, µM (top dose mostly 37.9 µM), without a hit: top-dose activity change, negative = inhibition, usual class: inhibitors; actives 1.2% (n = 300,000); AID 540256; Lassa virus pseudotype entry inhibition, cell reporter; control for the full effect not named in the record; active means well fitted inhibition curve with a large enough effect; inconclusive means small, poorly fitted or top-dose-only effect, or effect the other way; inactive means flat fitted curve, though single readings scatter; tested in HEK293 cells; note: % is set by controls: 0 for no effect and ±100 for the full control effect; nearly all actives have a fitted effect of over 50% in size; luciferase read-out
An asterisk follows results filed as active; u = inconclusive; x = no result given; & = joins results of further samples; [ ] = remark or other dose. Unless noted, calls come from the whole dose curve; as a rule, active means well fitted rising curve with a large enough effect; inconclusive means small, poorly fitted or top-dose-only effect; inactive means no such curve, though single readings can be large or run the other way. Potency is the fitted concentration of half-maximal effect.

Every second line gives: Marburg entry inh	Lassa entry inh	Cruzain inh Det	SARS PLpro yeast	RE007 growth inh	2A StopGo	Cruzain inh noDet	NS1 function inh
- COc1cc(OC)c(N(C)S(=O)(=O)c2cccc(C(=O)OCc3c(C)noc3C)c2)cc1Cl
 : u	u	x	0.5%	2.2%	u	x	1.2%
- COc1cc(CNCCc2ccccc2)ccc1OCC(N)=O
 : -24.1%	2.7%	-1.9%	-11.1%	-0.2%	-22.8%	3.7%	2.2%
- Cc1ccc(S(=O)(=O)NC(=O)NC(C)c2ccc(F)cc2)cc1 (stereo unspecified)
 : 9.5%[46.1 µM]	9.8%[46.1 µM]	x	9.3%	4.1%	-4.8%	x	9.8%
- CN1CCCC(OC(=O)CCCCC(=O)OC2CCCN(C)C2)C1 (stereo unspecified)
 : 1.9%	9.2%	4.6%	1.4%	-11.7%	0.7%	2.5%	-1.0%
- COc1cc(OC)cc(C(=O)N2CCC(N3CCN(c4ccccc4)CC3)CC2)c1
 : 1.8%&1.8%	-3.7%	-0.1%	2.0%	-27.8%	-12.8%	3.3%	-6.2%[9.22 µM]
- CC(=O)Nc1ccc(NC(=O)CC(c2ccccc2)c2ccccc2)cc1
 : -14.5%	-28.7%	x	x	-8.3%	-9.4%	x	10.0%
- O=C(CN1C2CCCC1CC(NC(=O)c1ccccc1)C2)Nc1ccccc1 (stereo unspecified)
 : -22.6%[46.1 µM]	-23.1%	x	3.1%	-14.2%	-13.1%	x	16.1%
- O=C(C1CCN(S(=O)(=O)N2CCOCC2)CC1)N1CCOCC1
 : 20.4%	-6.8%	5.0%	1.4%	-1.5%	0.6%	-8.3%	-1.7%
- CCCSc1nnc(NC(=O)c2cc(=O)c3ccccc3o2)s1
 : u	-1.0%[46.1 µM]	-0.2%	x	x	18.1%	-2.9%	x
- CN(C)C(CN1C(=O)C2CC=CCC2C1=O)c1cn(C)c2ccccc12 (stereo unspecified)
 : u	14.3%	1.1%	-1.2%	-11.9%	17.8%	-2.8%	-1.5%
- CCOc1cc([N+](=O)[O-])c2nc(N)sc2c1
 : x	x	x	-4.7%	1.1%	-1.2%	x	0.4%
- CCc1nc2ccccc2c(=O)n1/N=C/c1ccc(Cl)cc1
 : -3.9%[46.1 µM]	5.6%	x	x	0.8%	47.0%[activator]	x	x
- CC(C)(C)c1ccc(C(=O)n2cnc3ccccc32)cc1
 : x	x	x	-5.2%	-13.3%	u	x	-49.8%
- COc1cccc2cc(C(=O)N3CCCc4ccccc43)oc12
 : x	x	x	1.6%	-14.1%	-15.9%	x	1.4%
- CC1(c2ccccc2)NCCN2C(=O)CSC21 (stereo unspecified)
 : u	-10.6%	-1.8%	x	18.0%	-5.1%	-8.2%	7.6%
- CNC(=O)Nc1ccc(C(O)(C(=O)OC)C(F)(F)F)cc1 (stereo unspecified)
 : 7.3%[46.1 µM]	-8.9%	x	-2.3%	-2.8%	2.1%	x	-2.4%
- C=C1C(C(=O)Nc2ccccc2)C1C(=O)Nc1ccccc1 (stereo unspecified)
 : x	x	x	-0.1%	3.6%	0.5%	x	5.0%
- O=C(CN1C(=O)COc2ccccc21)c1ccc(Cl)cc1
 : u	14.3%	-2.8%	-9.2%	u	-17.6%	6.1%	-4.1%
- COc1cccc(CNC(=O)CCN2C(=S)NC(C)(C)CC2C)c1 (stereo unspecified)
 : -1.0%[46.1 µM]	27.6%[46.1 µM]	x	-5.1%	-7.6%	-11.7%	x	-2.5%
- CCOc1cc(/C=C2\SC(=NC)N(C)C2=O)c(Br)cc1OC(C)=O
 : x	x	x	-2.0%	1.6%	u	x	25.3%
- O=C(CS(=O)(=O)c1c[nH]c2ccccc12)N1CCc2ccccc21
 : x	x	x	4.0%	-4.6%	32.1%[activator]	x	-3.7%
- CNC(=O)CSc1nnnn1-c1ccc2c(c1)OCCO2
 : 10.6%	-11.0%	3.8%	-22.4%	17.9%	21.9%	-4.6%	9.7%
- Cc1nnc(N2CCN(c3ccccc3F)CC2)c2c1nnn2Cc1ccc(F)cc1
 : 0.2%[46.1 µM]	0.1%[46.1 µM]	0.5%	x	x	-30.0%	4.8%	x
- Cc1noc(C)c1C(=O)OCC(=O)c1c[nH]c2ccccc12
 : 9.5%	u	-0.6%	-3.2%	22.4%	33.7%[activator]	-26.9%	-15.5%
- O=C(NCc1ccc(Cl)cc1)C(=O)NCC1OCCN1S(=O)(=O)c1cccs1 (stereo unspecified)
 : 1.0%	-4.5%	-4.2%	-21.4%	0.0%	0.0%	-8.6%	-35.0%
- COc1ccc(CCN2CC(C(=O)NCc3ccc(F)cc3)CC2=O)cc1OC (stereo unspecified)
 : 16.2%	8.7%	x	0.5%	-5.2%	-3.3%	x	1.9%
- C/C(=N\NC(=O)Cn1cnc2ccccc21)c1cccs1
 : -19.8%[46.1 µM]	-12.4%[46.1 µM]	x	0.5%	-6.7%	-13.9%	x	1.2%
- CCc1ccc(NC(=O)N2CC(C)Oc3ccc(C)cc32)cc1 (stereo unspecified)
 : x	3.5%[46.1 µM]	1.3%	x	x	13.2%	2.0%	x
- COc1ccc(C)cc1NC(=O)C(=O)N1CCCC1
 : 12.3%[46.1 µM]	-3.2%	x	2.0%	-8.5%	0.4%	x	-1.7%
- CCCCC(=O)OC1=C(C(=O)c2ccccc2)N(CC)S(=O)(=O)c2ccccc21
 : u	-11.0%[46.1 µM]	-10.3%	x	x	-25.5%	-19.9%	x

Reprinted at random: five entries already listed
Every second line gives: Marburg entry inh	Lassa entry inh	Cruzain inh Det	SARS PLpro yeast	RE007 growth inh	2A StopGo	Cruzain inh noDet	NS1 function inh
- Cc1noc(C)c1C(=O)OCC(=O)c1c[nH]c2ccccc12
 : 9.5%	u	-0.6%	-3.2%	22.4%	33.7%[activator]	-26.9%	-15.5%
- COc1ccc(CCN2CC(C(=O)NCc3ccc(F)cc3)CC2=O)cc1OC (stereo unspecified)
 : 16.2%	8.7%	x	0.5%	-5.2%	-3.3%	x	1.9%
- COc1ccc(C)cc1NC(=O)C(=O)N1CCCC1
 : 12.3%[46.1 µM]	-3.2%	x	2.0%	-8.5%	0.4%	x	-1.7%
- C=C1C(C(=O)Nc2ccccc2)C1C(=O)Nc1ccccc1 (stereo unspecified)
 : x	x	x	-0.1%	3.6%	0.5%	x	5.0%
- Cc1nnc(N2CCN(c3ccccc3F)CC2)c2c1nnn2Cc1ccc(F)cc1
 : 0.2%[46.1 µM]	0.1%[46.1 µM]	0.5%	x	x	-30.0%	4.8%	x

Next structures follow.
Every second line gives: Marburg entry inh	Lassa entry inh	Cruzain inh Det	SARS PLpro yeast	RE007 growth inh	2A StopGo	Cruzain inh noDet	NS1 function inh
- COc1ccc2c(c1)sc(=NC(=O)CS(=O)(=O)c1ccc(F)cc1)n2C
 : u	-4.9%	x	-0.2%	1.9%	-18.3%	x	x
- COc1ccc(C)cc1NC(=O)c1nc2nc(C)cc(C)n2n1
 : u	-3.5%	x	x	-5.0%	-3.6%	x	-5.9%
- Cc1cccc(C(=O)c2c[nH]cc2-c2ccccc2)c1
 : -4.8%	2.0%	-0.6%	2.9%	7.7%	-14.4%	5.3%	-16.9%
- CCCCC(=O)N1CC(=O)Nc2ccc(F)cc2C1c1ccc(F)cc1 (stereo unspecified)
 : 24.0%	13.4%	-1.0%	0.7%	0.1%	-15.6%&-14.5%	-6.8%	-2.0%
- Cc1nc(CNS(=O)(=O)c2ccc3ccccc3c2)cs1
 : x	x	2.5%	-2.4%	16.5%	-16.2%	-2.6%	-87.2%
- CCC(CC)c1nnc(NC(=O)CN2C(=O)NC3(CCCC3)C2=O)s1
 : 19.0%	-0.1%	x	-3.1%	3.9%	-7.7%	x	-3.4%
- Cc1ccc(SCCC(=O)OC(C(=O)NC(N)=O)C(C)C)cc1 (stereo unspecified)
 : u	-0.1%	x	-1.5%	-3.0%	-7.4%	x	x
- CCc1ccc(CNC(=O)CN2C(=O)C3CCCCN3c3ccc(C(=O)N4CCCC4)cc32)cc1 (stereo unspecified)
 : x	-7.7%[46.1 µM]	-2.2%	x	x	20.0%	-7.7%	x
- COc1cc(N2CCOCC2)ccc1C=C(C#N)C#N
 : 9.8%[46.1 µM]	1.3%[46.1 µM]	x	0.3%	4.3%	24.3%	x	-4.2%
- Cc1csc(=O)n1CCC(=O)OCC(=O)NNC(=O)c1ccc(Cl)cc1
 : 20.4%	15.7%	x	-0.2%	0.1%	-12.0%	x	x
- O=C(CNS(=O)(=O)c1ccc(Cl)cc1)OCC(=O)N1CCCc2ccccc21
 : -14.9%	11.4%	-27.5%	-5.8%	6.0%	-18.2%	-2.1%	-26.4%
- Cc1cc(C)cc(N(C(=O)c2csnn2)C(C(=O)NC2CCCCC2)c2ccccn2)c1 (stereo unspecified)
 : -22.4%[46.1 µM]	-4.1%	x	-2.1%	-9.6%	20.4%	x	-8.2%
- CCN(CC)C(=O)CSc1nc2c(sc(=S)n2CC)c(=O)n1-c1ccccc1
 : -9.6%	-12.0%	-8.2%	-2.7%	-19.3%	u	-5.2%	-3.8%
- CCOc1ccc(CCNC(=O)CS(=O)(=O)Cc2nc(-c3ccccc3F)oc2C)cc1
 : x	0.6%[46.1 µM]	x	9.4%	15.3%	-27.5%	x	12.1%
- CCN(C(=O)Cn1c(=O)n(-c2ccccc2)c(=O)c2ccc(C(=O)NCc3ccc4c(c3)OCO4)cc21)c1cccc(C)c1
 : u	-14.5%[46.1 µM]	-4.7%	x	x	24.5%	7.1%	x
- Cc1ccc(C(C(=O)NC2CCCC2)N(C(=O)Cc2cccs2)c2cccc(C)c2C)o1 (stereo unspecified)
 : -12.8%	6.4%	-2.0%	-1.8%	-9.7%	x	8.9%	-3.6%
- C=CCOc1ccc(CNn2cn[nH]c2=S)cc1OCC
 : 10.1%	-10.6%	3.6%	6.0%	18.6%	-25.8%	-3.2%	18.6%
- CS(=O)(=O)Nc1cccc(C2=NN(C(=O)CCCC(=O)O)C(c3cccs3)C2)c1 (stereo unspecified)
 : 23.1%	7.9%	x	-0.5%	2.9%	10.1%	x	8.1%
